PABP polyA inh = PABP-poly(A) binding inhibition; PABP-poly(A) RNA binding, fluorescence polarization; 290,000 tested, 1% active; P11940; AID 2014; inhibition, % at 35 µM;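 active = 50% or more with normal probe brightness, or confirmed in later tests; about a fifth of its hits are not listed in these tables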;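 note: calls also rest on retests at 20 µM and on dose response follow-up; controls were probe without protein and protein plus probe with vehicle; some compounds called inactive have numbers as strong as hits; many hits fall short of the cut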
Target sequence (P11940 whole entry, looked up): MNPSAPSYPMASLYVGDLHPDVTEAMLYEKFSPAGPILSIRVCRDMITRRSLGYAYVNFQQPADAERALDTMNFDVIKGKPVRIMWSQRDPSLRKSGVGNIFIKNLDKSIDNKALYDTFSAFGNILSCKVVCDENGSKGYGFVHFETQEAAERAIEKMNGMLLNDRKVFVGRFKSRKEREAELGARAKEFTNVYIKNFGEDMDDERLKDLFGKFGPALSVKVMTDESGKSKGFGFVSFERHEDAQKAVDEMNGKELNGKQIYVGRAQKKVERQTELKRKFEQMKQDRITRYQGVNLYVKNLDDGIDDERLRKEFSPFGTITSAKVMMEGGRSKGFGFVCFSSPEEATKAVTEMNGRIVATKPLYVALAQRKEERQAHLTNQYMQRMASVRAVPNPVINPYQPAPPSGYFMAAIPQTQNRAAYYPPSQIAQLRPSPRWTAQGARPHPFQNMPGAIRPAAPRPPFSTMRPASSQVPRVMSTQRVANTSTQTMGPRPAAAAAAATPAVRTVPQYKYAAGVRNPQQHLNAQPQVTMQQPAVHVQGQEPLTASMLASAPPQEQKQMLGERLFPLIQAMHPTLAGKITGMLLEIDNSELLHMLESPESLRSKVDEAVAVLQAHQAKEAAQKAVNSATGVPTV
Rce1 inhib = inhibitors of yeast Ras-converting enzyme; Q03530; yeast membranes, quenched prenylated peptide cleavage fluorescence; calls only; 290,000 tested, 0.27% active;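 active = fall in fluorescence gain of 50% or more versus controls, with final raw signal at or below 3038400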;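 note: plate controls were neutral control wells for no effect and wells lacking membranes for full effect; tested at 10 µM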
Target sequence (Q03530 whole entry, looked up): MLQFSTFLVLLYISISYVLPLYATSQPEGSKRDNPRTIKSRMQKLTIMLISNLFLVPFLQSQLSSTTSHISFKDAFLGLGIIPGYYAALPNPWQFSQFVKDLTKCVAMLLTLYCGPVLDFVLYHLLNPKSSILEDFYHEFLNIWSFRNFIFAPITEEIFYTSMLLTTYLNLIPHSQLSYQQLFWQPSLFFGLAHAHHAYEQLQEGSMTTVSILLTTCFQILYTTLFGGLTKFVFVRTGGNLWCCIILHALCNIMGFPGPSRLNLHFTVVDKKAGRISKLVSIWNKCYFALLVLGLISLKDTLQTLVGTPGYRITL
eIF4H inh = inhibitors of RNA binding by human eIF4H; Q15056; eIF4H fluorescence polarization binding assay; inhibition, % at 35 µM; 290,000 tested, 0.94% active; AID 2012;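 active = 50% or more with normal probe brightness, or confirmed in later tests; about a fifth of its hits are not listed in these tables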;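 note: calls also rest on retests at 20 µM and on dose response follow-up; 0% = protein and probe with vehicle and 100% = probe without protein; strong numbers were not always called active; many hits fall short of the cut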
MT1-MMP act inh = blocks activation of human MT1-MMP. P50281. HT1080 RFP-PRO-GFP cells, GFP/RFP ratio fluorescence, overnight; percent of plate control window, DMSO zero. GFP/RFP ratio change, % at 20 µM. 360,000 tested, 0.061% active. AID 651647;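 active = GFP/RFP ratio change of at least 30% with cell ATP level not reduced by more than half and red fluorescence within 50% of control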; note: strong numbers were not always called active
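Assay system: HT1080 cells carrying an RFP-PRO-GFP reporter | Dosing: Single dose of 20 µM compound, 1% DMSO final | Incubation: Cells overnight before dosing, compound overnight, 37 °C, 5% CO2 | Evaluation: GFP/RFP fluorescence ratio | Control set: DMSO and RFP-L50D-GFP cell wells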
Yeast UUG start = yeast start codon fidelity modulation; 350,000 tested, 0.13% active; activity score, % at 18.7 µM; S. cerevisiae UUG-firefly luciferase reporter, luminescence/redox ratio;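 active = replicate mean at a twofold rise or more, about +100% in these data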;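 note: firefly luciferase made from a UUG start codon reports start codon fidelity; reporter light over untreated wells divided by growth signal over untreated wells; some hits fall short of that in this replicate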
HIV Env fusion = inhibitors of HIV Env-mediated cell fusion; inhibition, % at 12.3 µM; HeLa-JRFL Env/CEM21 cell fusion, luciferase; 360,000 tested, 1.1% active; AID 651610;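 active = mean replicate inhibition score of at least 50 and every replicate individually at or above 50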;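 note: 0% = plate neutral controls and 100% = maraviroc near 300 nM; one replicate is shown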
CSC inhib = blocks cancer stem cells. cancer stem cell-like cells viability, luminescence. inhibition, % at 7.5 µM. 300,000 tested, 1.1% active;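 active = mean at 75% or more and at least half the replicates too; tested in HMLE shEcad cells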;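 note: 0% = median of negative and 100% = median of positive control wells; the first replicate is given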
eIF4H inh retest = also measured in eIF4H inh; calls as there; inhibition, %; compound at 20 µM; confirmation average;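 mean of two retest wells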
PABP polyA inh retest = further read-out of PABP polyA inh, marked with its call; inhibition, %; compound at 20 µM; confirmation repeats;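 mean of two retest wells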
MT1-MMP act inh RFP = also measured in MT1-MMP act inh; calls as there; RFP signal change, %; measured here: RFP expression control read;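 0 = vehicle wells; hits needed this value within 50% of zero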
* = called active by the depositor; i = inactive; nt = not tested or not shown.

SMILES	PABP polyA inh	Rce1 inhib	eIF4H inh	MT1-MMP act inh	MT1-MMP act inh RFP	Yeast UUG start	HIV Env fusion	CSC inhib	others
Cc1cnc(C(=O)N2CCc3c([nH]c4ccccc34)C2c2ccc(F)cc2)cn1 (configuration not stated)	-7	i	-2	-4	-7	nt	-7	1
CCC(C(=O)NCC1CCCO1)n1nc(C)c2sc3ccccc3c2c1=O (configuration not stated)	6	i	-8	-1	5	-5	1	7
CCOc1ccc(CN(C)C(=O)CCl)cc1	8	i	-15	-6	-2	nt	27	-12
CCOc1ccccc1-c1nc(C(N)=O)c2[nH]c(=O)n(-c3ccccc3)c2n1	-2	i	-1	2	-2	-8	nt	-13
Cc1cc(C(=O)N/N=C/c2ccc(N(C)C)cc2)c2ccccc2n1	0	i	11	-9	-11	nt	-144	43
COc1ccc(OCC(O)CNC2CCCC2)cc1 (configuration not stated)	-3	i	4	1	0	-10	6	-14
CC1CCC(N(C(=O)c2csnn2)C(C(=O)NC(C)(C)C)c2cccnc2)CC1 (configuration not stated)	31	i	-8	2	3	nt	38	-12
Cc1cc(C(=O)NCc2ccc(F)cc2)n(-c2ccccc2)n1	-2	i	-13	7	5	nt	7	-1
CC(=O)Cc1nsc(Nc2ccccc2)n1	-1	i	-2	2	2	-15	-31	-14
COc1ccc(CCNC(=O)COc2ccc(N(C)S(=O)(=O)c3ccc(C)cc3)cc2)cc1	-3	i	10	-1	-7	-7	26	-9
COc1ccc(NC(=O)CNC(=O)c2ccc([N+](=O)[O-])cc2)cc1	17	i	-7	-1	2	-4	8	-17
CCc1nnc(NC(=O)c2ccc(S(=O)(=O)N3CCCCCC3)cc2)s1	-6	i	-3	6	0	-11	10	14
COc1ccc(CNC(=O)CCCn2nc(C)c3c(C)n(-c4ccc(C)cc4)nc3c2=O)cc1	-4	i	-4	8	-1	-11	5	-11
CC(C)Cc1ccc(/C(=N/O)C(=O)O)s1	2	i	-3	2	1	2	nt	-1
COCCNC(=O)C(OC(=O)c1ccco1)c1ccccc1OC (configuration not stated)	0	nt	4	2	9	-11	-69	-5
O=C(Nc1nnc(SCCN2CCOCC2)s1)C1CC(=O)N(c2ccccc2)C1 (configuration not stated)	4	i	1	1	4	29	-17	-7
COc1ccc(NC(=O)CCN2C(=O)c3ccccc3S2(=O)=O)cc1	4	i	-2	0	3	-24	-18	-1
O=C(CN1CCN(C2CCS(=O)(=O)C2)CC1)N1N=C(c2ccc(Cl)cc2)CC1c1ccco1 (configuration not stated)	nt	nt	nt	4	9	-14	11	nt
CN(C(=O)c1ccc(NC(=O)Cc2ccc(NC(=O)C3CCCN(C(=O)C4CCC4)C3)cc2)cc1)C1CC1 (configuration not stated)	nt	nt	nt	17	-2	1	-1	11
COc1cc(-c2nnc(SCc3cc(=O)oc4cc(O)c(O)cc34)o2)cc(OC)c1OC	69*	i	92*	12	1	-6	-7	11
O=C(CC1C(=O)NCCN1Cc1ccc(Cl)c(F)c1)NCCc1cccnc1 (configuration not stated)	5	i	10	-2	3	-14	2	-7
CC1Cc2ccccc2N1C(=O)Cn1c(=O)cc(O)c2ccccc21 (configuration not stated)	0	i	1	5	0	-7	28	4
Cc1ccc2c(c1)c(N=O)c(O)n2Cc1ccc(Cl)cc1	-1	i	-1	1	0	nt	11	104*
COc1ccccc1OCCOCCn1cnc2ccccc2c1=O	17	i	5	2	2	nt	-19	-15
C=CCNC(=O)CSc1nc2sc(C)c(C)c2c(=O)[nH]1	-14	i	2	1	6	-17	-12	0
COc1cc(C2NC(=O)NC(c3ccccc3)=C2C(C)=O)cc([N+](=O)[O-])c1O (configuration not stated)	14	i	6	-3	-1	20	-3	-3
CC(C)CN1Cc2ccccc2Oc2cc(Br)ccc2S1(=O)=O	nt	nt	nt	-4	-7	-1	2	nt
CCOC(=O)N1CCN(CC(O)COc2ccc(OC)cc2C(C)(C)C)CC1 (configuration not stated)	-2	i	-6	0	-1	nt	4	-7
COC(=O)c1nn(-c2ccccc2)c(Cl)c1/C=N/OCc1ccc(Cl)cc1Cl	-7	i	0	-15	-5	-7	nt	2
Cc1ccc(S(=O)(=O)N2CCOC2CNC(=O)C(=O)NCc2ccncc2)cc1 (configuration not stated)	-4	i	-20	-2	-8	-5	1	35
COc1ccc(C2C(C(=O)O)CCC(=O)N2c2ccc(OC)cc2)cc1 (configuration not stated)	8	i	-4	-2	2	-24	nt	-7
COc1ccc2oc(=O)c(NC(=O)C3CCCCC3)cc2c1	-3	i	-13	2	-1	0	-44	nt
COC(=O)c1ccc(C2C(C#N)=C(C)NC3=C2C(=O)CC(C)(C)C3)cc1 (configuration not stated)	-3	i	-16	4	3	6	-50	0
CC(Sc1nnc(-c2ccc(OC(F)F)cc2)n1N)C(=O)NCC1CCCO1 (configuration not stated)	nt	i	nt	1	-3	8	9	-7
O=[N+]([O-])c1ccc(S(=O)(=O)NCCc2ccncc2)cc1	-12	nt	4	0	3	nt	8	-4
Cc1ccc(-c2nn(CC(=O)NN3CCOCC3)c(=O)c3ccccc23)cc1	2	i	-7	0	1	-5	-32	-11
CC(=O)Nc1ccc(S(=O)(=O)Nc2c(C)nn(-c3ccccc3)c2C)cc1	-10	i	-9	1	-5	-19	nt	12
Cc1c(C(=O)Nn2cnnc2)oc2ccccc12	-2	i	6	-7	-2	-18	nt	3
NC(=O)C1CCCN(CC(=O)N2CCN(c3ccccc3)CC2)C1 (configuration not stated)	1	i	-4	2	3	-12	3	-34
Cc1cccnc1C1=NOC(Cc2ccccc2)C(=O)N1Cc1ccc2c(c1)OCO2 (configuration not stated)	nt	nt	nt	-2	-14	0	21	nt
Cc1ccc2c(c1)cc1c(=O)n(CC(=O)NCCCc3ccccc3)nc(C)n12	10	i	3	0	-2	-8	-2	-1
CCN(C[C@H]1N[C@@](C)(C(=O)OC)[C@H]2C(=O)N(C)C(=O)[C@@H]12)C(=O)c1ccccc1	nt	nt	nt	1	4	-6	-10	nt
COc1ccc(C(=O)NCCOc2ccccc2)cc1S(=O)(=O)N1CCOCC1	nt	nt	nt	2	1	-3	0	-18
Cc1ccc(C)c(-n2c3nc(=O)n(C)c(=O)c-3cc3ccccc32)c1	8	i	-4	0	-3	nt	-61	21
CC(/C=N/NC(=O)CSc1nnc(SCc2ccccc2)s1)=C\c1ccco1	2.7*	i	69*	4	4	nt	6	16	eIF4H inh retest=87*;PABP polyA inh retest=67*
Cc1ccc(Cl)cc1NC(=O)C1CCCN(S(=O)(=O)c2c(C)noc2C)C1 (configuration not stated)	16	i	8	-4	-4	-14	-5	10
Nc1ccc(NC(=S)Nc2ccccc2)cc1	5	i	-10	10	5	nt	12	2
CCc1ccccc1NC(=O)Nn1cnnc1	4	i	-9	2	2	-23	nt	nt
CCCOc1c(OC)cc(Cl)cc1C1NC(=O)NC(C)=C1C(=O)NCc1ccccc1 (configuration not stated)	-2	i	-1	-3	2	-17	49	nt
CSc1ccccc1C(=O)C1CCCN(C(=O)CCN2CCCO2)C1 (configuration not stated)	-2	i	-8	-6	4	nt	-16	-15
COc1ccc2[nH]cc(/C=C(/C#N)S(=O)(=O)c3ccccc3)c2c1	0	i	3	-10	-12	-8	nt	12
COc1ccc2c(=O)c(C(=O)NCCc3ccc(OC)c(OC)c3)c[nH]c2c1	4	i	-7	-3	-5	-13	-3	nt
O=C(N/N=C/c1ccc2ncccc2c1)c1cccc([N+](=O)[O-])c1	7	i	-2	2	1	nt	15	-3
CCc1cccc(CC)c1NC(=O)COc1ccccc1C(=O)c1cc(C#N)c(=O)n(C2CCCCC2)c1	22	i	-6	-14	-14	nt	39	13
COCCn1c(SCC(=O)c2ccc3c(c2)OCCO3)nnc1C(C)C	-10	nt	-8	0	0	-3	nt	nt
COc1cccc(CNc2ccc3[nH]c(=O)[nH]c3c2)c1OCc1ccccc1F	-12	i	4	3	-8	-10	22	-7
Cc1ccc(S(=O)(=O)NNC(=S)NCC2CCCO2)cc1 (configuration not stated)	-8	i	-2	3	3	-19	-8	-3
CCOc1ccc(/C=N/NC(=O)c2ccc(F)cc2)cc1CN1CC2CC(C1)c1cccc(=O)n1C2 (configuration not stated)	nt	nt	nt	-3	-1	-3	nt	-10
COc1ccc2c(c1)c1nc3ccccc3nc1n2CCn1c(=O)oc2ccccc21	-3	i	-8	-20	-6	-12	-225	16
Clc1ccc(/C=N/Nc2ncnc3ccccc23)cc1Cl	11	i	-1	4	0	-1	i	23
COc1cccc(-n2cc(C(=O)O)c3ccccc3c2=O)c1	-4	i	6	2	8	7	nt	-2
COc1ccccc1CN1CC(C(=O)NCc2cccc(Cl)c2)CCC1=O (configuration not stated)	nt	i	nt	3	2	-14	-6	-1

Structural class, those above containing a Cl atom
SMILES	PABP polyA inh	Rce1 inhib	eIF4H inh	MT1-MMP act inh	MT1-MMP act inh RFP	Yeast UUG start	HIV Env fusion	CSC inhib	others
CCOc1ccc(CN(C)C(=O)CCl)cc1	8	i	-15	-6	-2	nt	27	-12
O=C(CN1CCN(C2CCS(=O)(=O)C2)CC1)N1N=C(c2ccc(Cl)cc2)CC1c1ccco1 (configuration not stated)	nt	nt	nt	4	9	-14	11	nt
O=C(CC1C(=O)NCCN1Cc1ccc(Cl)c(F)c1)NCCc1cccnc1 (configuration not stated)	5	i	10	-2	3	-14	2	-7
Cc1ccc2c(c1)c(N=O)c(O)n2Cc1ccc(Cl)cc1	-1	i	-1	1	0	nt	11	104*
COC(=O)c1nn(-c2ccccc2)c(Cl)c1/C=N/OCc1ccc(Cl)cc1Cl	-7	i	0	-15	-5	-7	nt	2
Cc1ccc(Cl)cc1NC(=O)C1CCCN(S(=O)(=O)c2c(C)noc2C)C1 (configuration not stated)	16	i	8	-4	-4	-14	-5	10
CCCOc1c(OC)cc(Cl)cc1C1NC(=O)NC(C)=C1C(=O)NCc1ccccc1 (configuration not stated)	-2	i	-1	-3	2	-17	49	nt
Clc1ccc(/C=N/Nc2ncnc3ccccc23)cc1Cl	11	i	-1	4	0	-1	i	23
COc1ccccc1CN1CC(C(=O)NCc2cccc(Cl)c2)CCC1=O (configuration not stated)	nt	i	nt	3	2	-14	-6	-1

A portion of the library (hit frequency here may not be typical).
